# Screening data (PubChem)
# KCNQ2 enhance – potentiators of rat KCNQ2 potassium channel. AID 2239. CHO-K1 KCNQ2, FluxOR thallium flux fluorescence; hits give high values. actives 0.54% (n = 310,000). B-score at 10 µM. O88943;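 active means fluorescence ratio B-score at least 3 SD of library B-scores, with initial fluorescence B-score within 3 SD, cut at about 5.3 in these data; same plate scores as AID 2156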;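 further: B-score of peak minus minimum over baseline fluorescence ratio after K+ and Tl+ stimulus; positive B-score means potentiation of KCNQ2 with more thallium influx and brighter signal; only the inactives scoring about 0 or higher are listed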
# Target sequence (O88943 whole entry, looked up): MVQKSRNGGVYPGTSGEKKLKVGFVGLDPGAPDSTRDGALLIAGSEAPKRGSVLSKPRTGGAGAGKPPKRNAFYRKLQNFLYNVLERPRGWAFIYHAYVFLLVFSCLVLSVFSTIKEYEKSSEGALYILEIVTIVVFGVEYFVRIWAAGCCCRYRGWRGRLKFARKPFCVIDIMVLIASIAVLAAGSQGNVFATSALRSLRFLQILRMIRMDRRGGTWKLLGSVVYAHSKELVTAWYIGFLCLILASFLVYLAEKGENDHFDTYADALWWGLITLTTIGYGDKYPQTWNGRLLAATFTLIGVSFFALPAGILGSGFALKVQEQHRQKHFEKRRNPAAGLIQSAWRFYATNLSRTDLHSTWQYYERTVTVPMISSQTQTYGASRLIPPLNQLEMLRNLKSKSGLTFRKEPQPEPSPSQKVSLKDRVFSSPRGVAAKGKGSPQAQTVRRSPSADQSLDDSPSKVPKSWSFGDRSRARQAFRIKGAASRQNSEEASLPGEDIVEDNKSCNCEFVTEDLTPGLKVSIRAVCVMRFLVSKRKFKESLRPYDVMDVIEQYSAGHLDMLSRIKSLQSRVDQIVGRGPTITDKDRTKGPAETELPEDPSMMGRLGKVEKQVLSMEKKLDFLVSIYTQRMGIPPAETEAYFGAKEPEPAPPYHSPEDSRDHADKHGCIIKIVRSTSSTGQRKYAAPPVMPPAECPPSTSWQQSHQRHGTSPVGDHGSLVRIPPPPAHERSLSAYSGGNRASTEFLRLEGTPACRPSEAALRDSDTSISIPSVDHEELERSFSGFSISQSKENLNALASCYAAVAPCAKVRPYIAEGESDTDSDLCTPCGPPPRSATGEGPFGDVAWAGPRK
# KCNQ2 enhance baseline – further read-out of KCNQ2 enhance, marked with its call; B-score; compound at 10 µM; measured here: initial fluorescence intensity artifact check;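 brightness before thallium and not channel activity; 0 = typical well and far values either way flag optical interference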
# Active calls of the source: *; . = not tested or not shown.
# The opening five records as a preview:
SMILES,KCNQ2 enhance,KCNQ2 enhance baseline
Nc1ccc2oc(=O)c(-c3ccccc3)cc2c1,1.8,1.5
COC(=O)C(C(=O)Nc1ncccn1)C1CCCCCC1 (stereo not given),0.07,-0.23
O=C(NCCc1c[nH]c2ccccc12)C(=O)NCC1OCCCN1S(=O)(=O)c1ccccc1 (stereo not given),1.2,-0.02
CCCC1(c2ccccc2)NC(=O)N(CC(=O)Nc2cc(OC)cc(OC)c2)C1=O (stereo not given),1.5,-2.1
CC(C)(C)c1ccc(C(=O)NNC(=O)c2cccc(Br)c2)cc1,0.8,1.2

# The whole of this part, from the start:
SMILES,KCNQ2 enhance,KCNQ2 enhance baseline
Nc1ccc2oc(=O)c(-c3ccccc3)cc2c1,1.8,1.5
COC(=O)C(C(=O)Nc1ncccn1)C1CCCCCC1 (stereo not given),0.07,-0.23
O=C(NCCc1c[nH]c2ccccc12)C(=O)NCC1OCCCN1S(=O)(=O)c1ccccc1 (stereo not given),1.2,-0.02
CCCC1(c2ccccc2)NC(=O)N(CC(=O)Nc2cc(OC)cc(OC)c2)C1=O (stereo not given),1.5,-2.1
CC(C)(C)c1ccc(C(=O)NNC(=O)c2cccc(Br)c2)cc1,0.8,1.2
CCCN1CCN(CCCNC(=O)c2ccc3c(c2)NC(=O)c2ccccc2S3)CC1,5.1,0.16
CC(=O)Nc1ccc(/C=C(\C#N)C(=O)NCc2ccccc2)cc1,1.7,-0.84
CCOC(=O)Cc1nc2ccccc2n(CC#N)c1=O,0.56,-2.5
O=C(O)CC12CC3CC(C1)CC(n1ncc(N4CCC5(CC4)OCCO5)c(Cl)c1=O)(C3)C2,0.65,0.34
O=C(NCCCc1ccccc1)c1ccccc1O,5,-0.01
C/C(Cn1nc([N+](=O)[O-])cc1C)=N\NC(=O)COc1c(Cl)cc(Cl)cc1Cl,0.06,-0.46
COc1ccc([N+](=O)[O-])cc1N(CC(=O)NCCCOC(C)C)S(C)(=O)=O,0.07,-0.34
C/C(=N\NC(=O)C1CC1)c1ccc(Cl)c(Cl)c1,0.26,0.29
Cc1cc2c(cc1S(=O)(=O)N1CCOCC1)NC(=O)CO2,2.5,2.7
CN(C)/N=C/c1ccc(Sc2ccccc2[N+](=O)[O-])o1,0.13,-1.1
CC(=O)Oc1c(C)cc(Cl)cc1C(=O)Nc1ccc([N+](=O)[O-])cc1Cl,0.72,-1.4
O=C(NCCCN1CCCC1=O)c1cncc(Br)c1,0.82,-0.16
Cc1nc(NS(=O)(=O)c2ccccc2)sc1C(C)(C)C,0.92,-1
COc1cccc(-c2ccc(SCC(=O)N3CCc4ccccc43)nn2)c1,0.19,-1.6
O=c1[nH]c2ccccc2n1Cc1ccc(Cl)cc1,0.76,-0.62
O=S(=O)(NCC(c1cccnc1)N1CCN(c2ccc(F)cc2)CC1)c1ccccc1 (stereo not given),0.27,0.25
COCCCNC(=S)N/N=C/c1ccc(OC)cc1,0.51,0.74
COc1ccc(CCNS(=O)(=O)c2cc(C(=O)O)c(Cl)cc2Cl)cc1,1.2,-1.4
CC(=O)O[C@@H]1C[C@H]2C(C)(C)C(=O)C=C[C@]2(C)[C@H]2CC[C@@]3(C)[C@H](c4ccoc4)OC(=O)[C@H]4O[C@]43[C@@]21C,0.23,-0.07
NNC(=O)c1ccc(CN2CCCCC2)o1,0.02,-1.9
# Carrying on.
SMILES,KCNQ2 enhance,KCNQ2 enhance baseline
CC1CCCC(NCC(=O)Nc2ccc(C(N)=O)cc2)C1C (stereo not given),0.29,-0.41
Cc1cc([N+](=O)[O-])nn1CC(=O)Nc1sc2c(c1C(N)=O)CCCC2,0.67,0.16
CC(=O)Nc1ccc(NC(=O)c2cc(-c3ccccc3)nc3ccccc23)cc1,0.68,0.05
CC1CN(C(=O)c2ccccc2NS(=O)(=O)c2cccc([N+](=O)[O-])c2)CC(C)O1 (stereo not given),0.04,-0.18
Clc1nc(CN2CCCCC2)nc2sc3c(c12)CCC3,0.77,-1.5
O=C(Nc1ccnn1C1CCN(C(=O)Cc2cccc(Cl)c2)CC1)C1CC1,0.9,0.31
OCCC1CN(Cc2ccc(C(F)(F)F)cc2)CCN1Cc1ccccc1 (stereo not given),0.16,0.32
Cc1cccc(NC(=O)CN2C(=O)CCS(=O)(=O)c3ccccc32)c1C,0.17,-0.54
CC(C)c1ccc(N(CC(=O)N2CCOCC2)S(C)(=O)=O)cc1,0.13,-1
Cc1cc(C(=O)CSc2nnc(-c3ccc(F)cc3)o2)c(C)n1CC1CCCO1 (stereo not given),0.9,-0.89
O=C(O)c1ccc(CSc2nnc(-c3ccncc3)n2-c2ccc(Br)cc2)cc1,0.95,-0.46
O=C(N/C(=C/c1ccccc1)C(=O)N1CCCCC1)c1ccco1,0.79,0.15
Cc1ccc(C)c(NC(=O)CCC(=O)N/N=C/c2ccc3c(c2)OCO3)c1,0.01,2.2
CCn1ncc(NC(=S)NCCc2ccccc2)c1C(N)=O,0.73,-0.65
Nc1c(C(=O)Nc2ccc(Cl)c(C(=O)O)c2)sc2nc3c(cc12)CCCC3,0.49,-0.2
COc1ccccc1-c1c(C#N)c(SCC(=O)N2CCCC2)nc(C)c1C(N)=O,1.8,-0.01
C/C(Cc1ccccc1)=N/NC(=O)CCCC(=O)N/N=C(/C)Cc1ccccc1,0.28,-0.04
NC(=O)c1cc(S(=O)(=O)N2CCc3ccccc3C2)cs1,0.57,0.2
COc1ccc(NC(=O)Nc2ccc(C(=O)N3CCOCC3)cc2)c(OC)c1,0.13,1.2
Cc1noc(C(=O)N2CC3(C)CC2CC(C)(C)C3)c1Cl (stereo not given),1.1,-0.09
O=C(CCCCCN1C(=O)c2cccc3cccc(c23)C1=O)NCCO,0.45,-0.01
COc1ccc(Cc2nnc(NC(=O)Cn3cnc4c3c(=O)n(C)c(=O)n4C)s2)cc1OC,0.18,0.2
O=C(Cn1nnc(-c2ccccc2)n1)N/N=C/c1cccc([N+](=O)[O-])c1,0.46,0.87
O=C(CCC1CCCC1)NC1CCCCC1,1.1,0.03
Cc1ccc(C(=O)NNC(=O)C(C)Oc2ccc3ccccc3c2)o1 (stereo not given),0.16,2.1

# Two consecutive compounds already listed:
SMILES,KCNQ2 enhance,KCNQ2 enhance baseline
CC1CCCC(NCC(=O)Nc2ccc(C(N)=O)cc2)C1C (stereo not given),0.29,-0.41
Cc1cc([N+](=O)[O-])nn1CC(=O)Nc1sc2c(c1C(N)=O)CCCC2,0.67,0.16

# (listing goes on)
SMILES,KCNQ2 enhance,KCNQ2 enhance baseline
CCCN1Cc2cccc(C(=O)Nc3ccc(C)cc3)c2C1=O,0.31,-1.1
CCCN1CCC(=O)N(CCSc2ccc(NC(C)=O)cc2)CC1,0.12,-0.08
COc1ccccc1CCNC(=O)C(=O)NCC1OCCCN1S(=O)(=O)c1cc(C)ccc1C (stereo not given),0.03,-0.15
Cc1ccc(C)c(S(=O)(=O)N2CCC3(CC2)OCCO3)c1,0.4,-0.81
COc1ccc(-c2nc3c([nH]2)c(=O)n(C)c(=O)n3C)c(OC)c1,0.02,1.6
COc1ccccc1N1C(=O)CCC1(C#N)c1ccc(Br)cc1 (stereo not given),0.03,-0.4
COc1ccc(Cl)c2c1[nH]c1nc(SCc3ccccn3)nnc12,1.2,-1.2
COc1cc(/C=N/NC(N)=O)ccc1OCC(=O)Nc1cc(C)c(C)cc1Br,0.37,-1.9
CC(=O)Nc1ccc(S(=O)(=O)NC2=NCN(C)CN2)cc1,2.5,-0.19
O=C(/C=C/c1ccccc1)Nc1ccc(S(=O)(=O)N2CCOCC2)cc1,2,-0.56
O=C(CSc1nc2ccc([N+](=O)[O-])cc2s1)NC1CCS(=O)(=O)C1 (stereo not given),0.53,0.17
CCOc1ccc(CCNC(=O)CN2C(=O)NC3(CCCCC3)C2=O)cc1OCC,0.14,0.09
Cc1nc(C(C)NC(=O)c2cc(COc3ccc(F)c(F)c3)on2)cs1 (stereo not given),2.1,-0.07
CCN1CCN(CCCNC(=O)c2ccccc2NC(=O)C2=C(C)OCCS2)CC1,0.27,0.87
CN(C)S(=O)(=O)c1cccc(NC(=O)COC(=O)CCSc2ccc(Cl)cc2)c1,0.57,1.1
O=C(CN1CCN(S(=O)(=O)c2ccc(Br)cc2)CC1)N/N=C/c1cccs1,0.91,0.13
COC(=O)C1=C(C)N(Cc2ccc(OC)cc2)C(=O)C1,0.44,-0.15
Cc1ccc(NC(=O)CCOc2ccccc2C)cc1F,0.39,-1.1
COc1ccc(Cl)cc1NC(=O)C(C)Sc1n[nH]c(N)n1 (stereo not given),0.65,-1.5
CCCCOCCCNC(=O)/C=C/c1ccccc1Cl,0.8,-0.74
COc1cccc(OC(=O)N2CCOCC2)c1,1,-0.22
COc1ccc(CCC(=O)NC(C)C2CCCO2)cc1 (stereo not given),0.5,-1.1
O=C(O)C1CCC(=O)N1C(=O)OCc1ccccc1 (stereo not given),0.92,0.22
O=C(NCc1ccccc1)C1C2C=CC3(CN(Cc4cccnc4)C(=O)C13)O2 (stereo not given),0.18,0.51
CCCCc1nnc(NC(=O)CSCc2cc(=O)n3c(C)csc3n2)s1,0.17,-1.7

# Three of the entries above in order of their number in KCNQ2 enhance, rising.
SMILES,KCNQ2 enhance,KCNQ2 enhance baseline
COc1ccccc1N1C(=O)CCC1(C#N)c1ccc(Br)cc1 (stereo not given),0.03,-0.4
CCCN1CCC(=O)N(CCSc2ccc(NC(C)=O)cc2)CC1,0.12,-0.08
COc1ccc(Cl)cc1NC(=O)C(C)Sc1n[nH]c(N)n1 (stereo not given),0.65,-1.5

# Further compounds follow.
SMILES,KCNQ2 enhance,KCNQ2 enhance baseline
CCc1c(C(=O)Nc2ccncc2)csc1C,3.4,0.71
Cc1nn(Cc2nnc(SCC(=O)Nc3ccc(Cl)cc3)n2C)c(C)c1[N+](=O)[O-],0.44,1.1
CCCCn1nnnc1NCc1cc(OC)c(OC)cc1OC,0.33,-1.1
CCn1ncc(/C=N/NS(=O)(=O)c2ccc(Cl)cc2)c1C,0.79,1.8
COc1cccc(OCc2nc3ccccc3c(=O)n2N)c1,1.2,1.2
CCOC(=O)N1CCC(NC(=O)c2ccc(CO)c(C(=O)NC3CCN(C(=O)OCC)CC3)c2)CC1,0.53,1.1
O=C(COC(=O)c1ccc(Br)o1)NC1CCCCC1,1.6,3.1
COc1ccc(CCC(C)NCc2ccccc2OC)cc1 (stereo not given),1,0.02
COc1ccc(OC)c2c1cc(C(=O)N[C@H](C(=O)N1CCC[C@H]1C(=O)O)C(C)C)n2C,0.78,-1.6
COc1ccccc1OCC(=O)N1CCC2(CC1)CC(=O)c1ccccc1O2,1.1,1.2
Cc1nn(-c2ccc(F)cc2)c(Cl)c1/C=C/C(=O)OCC(=O)Nc1ccc(F)cc1F,0.62,1.6
CC(C)c1ccc(NC2CCCN(C(=O)CCn3cnnn3)C2)cc1 (stereo not given),0.05,-0.52
Cc1ccc(NC(=O)C2CCCN(S(=O)(=O)c3cccc4cccnc34)C2)cc1 (stereo not given),1.8,0.02
CCOc1cc(CNn2cnnc2)cc(Cl)c1OCC(=O)NC(C)(C)C,0.57,-0.46
Cc1cc(S(=O)(=O)NC2CC(C)(C)NC(C)(C)C2)c(Cl)cc1Cl,1.5,-1.3
CS(=O)(=O)ON=C1CCN(S(=O)(=O)c2ccccc2)CC1,0.32,-0.05
COc1ccc(/C=C/C(=O)NCCCc2ccccc2)cc1OC,0.54,-1.6
COc1ccc(C(C)=O)c(OC(=O)c2ccco2)c1,1.7,-0.19
CN1CCN(c2ccc(CNS(=O)(=O)Cc3cccc(C(F)(F)F)c3)cc2)CC1,1.3,-0.56
Cc1c(Cl)cccc1NS(=O)(=O)c1cn(C)c(=O)n(C)c1=O,2.5,1.3
COc1ccc(CCNC(=O)COc2ccc3c(C)cc(=O)oc3c2)cc1OC,0.46,-1.9
COc1ccc([N+](=O)[O-])cc1NC(=S)NC(C)=O,0.92,-0.27
Cc1ccc(/C=N/n2c(-c3cccnc3)n[nH]c2=S)o1,0.15,0.43
Cc1nc(CCN2C(=O)c3ccccc3C2=O)n[nH]1,1.1,1.3
C=CCn1c2ccccc2c2nnc(SCCN3CCCCC3)nc21,2.4,-0.39
# Following part.
SMILES,KCNQ2 enhance,KCNQ2 enhance baseline
CCOC(=O)C1=C(C)NC(=O)NC1c1ccc(Br)o1 (stereo not given),0.63,-2.1
COc1ccc(-c2cnn(-c3ccccc3)c2N)cc1OC,1.3,0.06
CCCCCn1c(=S)[nH]c2cc(C(=O)N3CCN(C(=O)OCC)CC3)ccc2c1=O,0.23,-0.95
O=C(NCCC1=CCCCC1)C1CCC(CNc2nc(=S)[nH]c3ccccc23)CC1 (stereo not given),1.9,-0.52
CCc1cc(C(=O)N2CCCC(C(=O)c3ccc(Oc4ccccc4)cc3)C2)n(C)n1 (stereo not given),0.8,1
O=S(=O)(NCCc1ccccc1)c1ccc(-n2cnnn2)cc1,0.91,-0.07
NC(=O)CC(NC(=O)Cc1ccc(Cl)cc1)c1ccc(NCCCN2CCCC2=O)c([N+](=O)[O-])c1 (stereo not given),0.02,-0.06
CC(=O)C1=C(C)Nc2ncnn2C1c1ccc(Cl)cc1Cl (stereo not given),0.06,0.01
CCCCN1C(=O)C(NC(=O)C2CC2)(C(F)(F)F)C2=C1CC(C)(C)CC2=O (stereo not given),0.82,1.1
Cc1onc(-c2ccccc2)c1C(=O)N1CCN(S(=O)(=O)c2ccc(Cl)cc2)CC1,1.2,-1.8
Nc1nc(SCC(=O)Nc2cc(S(=O)(=O)N3CCOCC3)ccc2Cl)n[nH]1,1.7,-0.57
CCCCOP(=O)(c1ccc(N(C)C)cc1)C(O)c1ccc(N(C)C)cc1 (stereo not given),0.35,2.1
COC(=O)/C(=C\Nc1ccc(OC)cc1)NC(=O)c1ccc(Cl)cc1Cl,0.15,-0.12
O=c1[nH]c(CSc2nc3ccccc3[nH]2)nc2c1cnn2-c1ccccc1,0.81,-0.6
CC(=O)N(c1ccccc1)c1nnc(-c2cnc(C)cn2)s1,1.6,-0.04
O=C(Nc1nnc(C2CC2)s1)c1cc(Cl)sc1Cl,1,-1.9
Cc1nc(N2CCOCC2)nc(N2CCC(C)CC2)c1[N+](=O)[O-],0.08,0.12
COc1ccc(NC(=S)Nc2ccccc2)cc1,0.39,.

# A portion of the library; count on the stated rates, not on these rows.
